# High-throughput results deposited in PubChem BioAssay by ICCB-Longwood Screening Facility, Harvard Medical School.
# Polio RdRp inh – poliovirus RdRp elongation inhibitors, primary screen, biochemical, fluorescence polarization, total intensity. poliovirus polymerase elongation; stronger effect = lower value. % elongation, % (compound at 16.7 µg/mL). 150,000 tested, 0.66% active. AID 588519, 2011; in the data active = % elongation below about 90%; note: some results filed as inactive read as strong as hits
# Target sequence (P03300 1749-2209 limits assumed): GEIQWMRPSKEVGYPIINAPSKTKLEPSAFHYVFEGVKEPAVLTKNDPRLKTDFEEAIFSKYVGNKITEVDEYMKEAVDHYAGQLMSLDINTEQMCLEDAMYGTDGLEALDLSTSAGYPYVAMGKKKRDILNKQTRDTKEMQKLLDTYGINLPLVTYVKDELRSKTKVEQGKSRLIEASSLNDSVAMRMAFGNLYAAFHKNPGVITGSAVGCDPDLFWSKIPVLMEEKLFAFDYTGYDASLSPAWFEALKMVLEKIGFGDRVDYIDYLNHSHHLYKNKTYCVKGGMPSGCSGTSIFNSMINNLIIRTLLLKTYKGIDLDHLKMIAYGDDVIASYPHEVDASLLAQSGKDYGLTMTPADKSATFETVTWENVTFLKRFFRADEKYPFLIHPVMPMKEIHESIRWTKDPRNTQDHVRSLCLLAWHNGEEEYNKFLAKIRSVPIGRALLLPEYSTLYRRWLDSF
# MenB inh – M. tuberculosis MenB inhibitors, primary screen, biochemical, absorbance; 1,4-dihydroxy-2-naphthoyl-CoA synthase (Mycobacterium tuberculosis (strain ATCC 25618 / …; inhibition, %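 (about 12 µg/mL by stock and volumes)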; 100,000 tested, 0.43% active; MenB enzyme assay, absorbance read-out; some hits fall short of the stated cut; AID 540299, 2011;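 active = mean of two replicates above 30%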;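 note: 0% = no compound and 100% = wells with inactive enzyme; the first replicate is given; strong numbers were not always called active; inactives centre near -10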
# MbtI inh – MbtI salicylate synthase inhibitors, primary screen, biochemical, fluorescence intensity; inhibition, %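 (about 17 µg/mL by stock and volumes)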; P9WFX0; 100,000 tested, 0.89% active; purified MbtI enzyme, fluorescence intensity read-out;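 active = above 50% in both replicates, above 80% if mildly self-fluorescent; inactive = the rest, strongly fluorescent compounds included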;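 note: 0% = mean of negative and 100% = mean of positive controls; one replicate is shown; some compounds called inactive have numbers as strong as hits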
# Target sequence (P9WFX0 whole entry, looked up): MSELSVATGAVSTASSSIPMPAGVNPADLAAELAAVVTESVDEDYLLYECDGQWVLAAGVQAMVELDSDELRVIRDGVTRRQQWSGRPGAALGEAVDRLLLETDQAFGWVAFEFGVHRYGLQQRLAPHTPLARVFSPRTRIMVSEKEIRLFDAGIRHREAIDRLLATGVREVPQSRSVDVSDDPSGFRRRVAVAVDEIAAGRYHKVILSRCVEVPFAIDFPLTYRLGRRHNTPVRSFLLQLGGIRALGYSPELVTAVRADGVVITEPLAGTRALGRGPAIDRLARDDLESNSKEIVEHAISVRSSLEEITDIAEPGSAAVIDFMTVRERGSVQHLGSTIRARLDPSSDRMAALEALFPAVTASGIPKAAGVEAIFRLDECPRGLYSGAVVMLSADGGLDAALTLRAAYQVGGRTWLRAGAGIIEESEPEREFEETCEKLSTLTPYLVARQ
# Polio RdRp inh intensity – second read-out of Polio RdRp inh, no call of its own (marks repeat the call); % elongation; measured here: total intensity read-out; formula for this scale not given here;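 total fluorescence in place of polarization; lower means less elongation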
# * marks the source's active call; other numbers are inactive results; / = no result given; & = joins results of further samples.
molecule,Polio RdRp inh,Polio RdRp inh intensity,MenB inh,MbtI inh
CCCCN(C)C1=Nc2cccc3cccc1c23,98,110,-63,31
Cc1ccccc1S(=O)(=O)/N=C(\N)c1ccccc1,100,101,-13,-6
CN(C)S(=O)(=O)c1ccc(N2CCCC2)c(C(=O)NC23CC4CC(CC(C4)C2)C3)c1,/,/,-12,-10
COC(=O)C1=C(C)NC2=C(C(=O)CC(c3ccc(N(C)C)cc3)C2)C1c1ccco1 (stereo unspecified),100,100,-56,4
Cn1c(=O)c2c(n(C)c1=O)=NC1(CCCCC1)ON=2,101,101,-54,4
COc1cc2c3nc4n(c(=O)c3n(CC(=O)N3CCCCC3C)c2cc1OC)CCS4 (stereo unspecified),102,102,-33,19
O=C(CSc1ncnc2sc3c(c12)CCCC3)N/N=C/c1cccs1,103,99,-13,4
O=C1OC(c2ccccc2)=N/C1=C\C=C\c1ccco1,102,102,-105,3
Cc1cccc(C)c1NC(=O)COC(=O)c1cc(Cl)cc(Cl)c1,102,103,/,-5
O=C(CC1OC(=O)c2ccccc21)c1ccc(Cl)s1 (stereo unspecified),85*,92*,-5,6
Fc1cccc(Nc2nc(-c3ccccc3)no2)c1,104,99,-17,-4
CCc1ccc(NC(=O)Cn2nnnc2N)cc1,102,102,15,-9
COc1cccc(-c2cn3c(n2)sc2cc(C(=O)NCC4CCCO4)ccc23)c1 (stereo unspecified),102,104,-14,-150
CC(C)Cc1ccc(C#N)c(SCC(=O)c2ccccc2)n1,102,103,-21,-6
CCn1cc(C(=O)N2CCN(C)CC2)c(=O)c2cc(S(=O)(=O)N(C)C)ccc21,102,109,-9,6
CCOc1ccc(S(=O)(=O)N(CC)CC(=O)NCC2CCCO2)cc1 (stereo unspecified),102,102,-20,-2
CN1CC=C(/C=C/c2ccc(N3CCCCC3)cc2)CC1,103,105,-14,88
CCCn1c(=O)c2oc(C)cc2n(-c2ccccc2C)c1=O,99,102,6,1
CCN(CC)S(=O)(=O)c1ccc(/C=C/C(=O)OCc2nnc(-c3ccccc3)o2)cc1,100,102,-5,-11
Cc1cc(C(=O)CSc2nc(N)cc(=O)[nH]2)c(C)n1C,107,109,-10,0
N#Cc1c(N)n(-c2ccc(C(F)(F)F)cc2)c2nc3ccccc3nc12,101,97,/,24
C=CCc1c(C)[nH]c(=S)[nH]c1=O,103,104,3,8
CN(C)/C=N/N=C(\Cc1nc2ccccc2[nH]1)c1ccccc1,/,/,-17,-2
O=C(COC(=O)Cc1cn2ccsc2n1)Nc1nc2ccccc2s1,100,107,-24,6
COC(=O)c1sccc1NC(=O)c1csc2ccccc12,103,101,-41,-4
N#Cc1c(/N=C/N2CCCC2)sc2c1CCCCC2,103,101,-27,5
O=C(c1cc2nc(-c3ccco3)cc(C(F)(F)F)n2n1)N1CCCc2ccccc21,103,104,-9,6
N#Cc1ccc(-c2cccnc2)n(CC(=O)NC2CCCCC2)c1=O,103,106,-35,-8
CN1CCC23c4ccccc4NC1C21CCN(C)C3Nc2ccccc21,101,102,-2,-17
CCC(C)(C)NC(=O)c1ccc(S(=O)(=O)N2CCCC2)cc1,100,95,/,6
N=c1ncn(CC(O)CO)c2nc(Br)[nH]c12 (stereo unspecified),103,108,-16,-7
COc1ccc(-c2nn(-c3ccccc3)cc2C(=O)N2CCOCC2)cc1,103,107,-8,-19
Cc1ccc2cccc(OC(=O)c3ccc(OCc4c(C)noc4C)cc3)c2n1,103,87,-25,12
C1=NCCCC12CCCCC2,102,102,-63,6
CC(=O)N1NC(=Nc2ccccc2)SC1(C)C,103,101,-32,12
C=CCN1C(=O)/C(=C\c2cccc(OC(=O)c3ccco3)c2)SC1=S,101,102,-11,1
Cc1cc(=O)c2cccc(C)c2[nH]1,105,101,-9,18
COc1ccccc1C(=O)NC(=O)CSc1nnnn1C,98,103,7,7
N#Cc1c(N)cc(N)[nH]c1=S,104,102,-1,97*
CCC(=O)O[C@]1(C(=O)CCl)[C@@H](C)CC2C3CCC4=CC(=O)C=C[C@]4(C)[C@@]3(F)[C@@H](O)C[C@@]21C (stereo partly specified),100,103,5,-14
Cn1nc(C(=O)NCCc2ccsc2)c2c1-c1ccccc1SC2,105,98,-38,10
O=S(=O)(/N=C(/Nc1cc(N2CCOCC2)ncn1)c1ccccc1)c1ccccc1,102,104,2,-1
CN=C(Cl)c1cccs1,/,/,-8,1
CCCn1c(N)c(C(=O)CSc2nnc(-c3ccccc3)o2)c(=O)[nH]c1=O,105,99,12,-8
Cc1cc2c3c([nH]c2cc1S(=O)(=O)NCc1ccco1)CC(C)(C)CC3=O,99,103,-12,13
CC1(C)CC(=O)OC(c2ccccc2)(c2ccccc2)C1,106,109,-15,/
CC(C)NC(=O)c1ccc(S(=O)(=O)N2CCCCCC2)cc1,100,96,/,-2
CO/N=C(/C(=O)N[C@@H]1C(=O)N2C(C(=O)O)=C(CSc3nc(=O)c(O)nn3C)CS[C@H]12)c1csc(N)n1,99&100,102&103,-2&-5,-7&-6
CCOC(=O)c1ccc(CC2SC(=Nc3ccc(CC)cc3)NC2=O)cc1 (stereo unspecified),101,98,-2,-45
CC(C)N1C(=O)/C(=C\c2cccs2)SC1=S,101,100,-141,-2
CCN(C(=O)c1ccc2c(c1)CCO2)c1cccc2ccccc12,102,109,1,-7
CN(C)CCS(=O)c1ccccc1 (stereo unspecified),101,104,-17,-13
Cc1ccc(/C=C/c2onc3c(=O)n(C)nc(C)c23)cc1,107,112,-14,-10
CCc1ccc(N2C(=O)CN(CC(=O)OC)C2=S)cc1,101,102,-8,13
O=C(Nc1cccc2ccccc12)OCC(F)(F)F,100,105,-17,-63
CC(=O)N=c1scc(-c2ccccc2)n1-c1ccc(Cl)cc1,102,100,/,0
O=S(=O)(CCCCl)c1nc2ccccc2s1,100,100,/,18
OCCN1CCSC1=Nc1ccccc1C(F)(F)F,95,92,-6,-3
C=CCC1C(=S)SC(C(=O)OCC)=C1NC(=O)c1cccs1 (stereo unspecified),105,108,8,/
Cc1ccc(-c2cnc(SCC(=O)N3CCCC3=O)n2C)cc1,99,98,-26,0

# (more compounds)
molecule,Polio RdRp inh,Polio RdRp inh intensity,MenB inh,MbtI inh
CCOC(=O)N1CCC(Nc2nc(OC)nc(OC)n2)CC1,102,106,-12,3
CCCCCCCCCC(=O)OCC(CO)OC(=O)CCCCCCCCC (stereo unspecified),100&102,104&103,5,-11
COc1ccc(OCCOC(=O)C23CCC(=O)N2c2ccccc2C(=O)N3C2CC2)cc1 (stereo unspecified),102,105,-1,-6
c1ccc(CSc2nncn3c2cc2sccc23)cc1,102,106,-106,5
OC[C@H]1O[C@@H](Oc2c[nH]c3ccc(Br)c(Cl)c23)[C@H](O)[C@@H](O)[C@H]1O,103,106,-5,4
CC(NC(=O)c1ccc2c(c1)OCO2)c1ccccc1 (stereo unspecified),102,110,-12,/
c1cc(-c2nc3ccccc3o2)cc(-c2nc3ccccc3o2)c1,103,101,2,29
CCCCC1(O)CC(C)N(C)CC1C (stereo unspecified),101,101,-17,-8
CCC(SC1=N/C(=C\c2cccnc2)C(=O)N1c1ccccc1)C(=O)N1CCOCC1 (stereo unspecified),101,99,-18,-11
COc1ccc(Cn2cc[nH]c(=O)c2=O)cc1,102,106,-14,-7
Cn1c(C2CCS(=O)(=O)C2)n[nH]c1=S (stereo unspecified),103,106,-5,-16
O=C(NC1=NCCS1)c1ccc(S(=O)(=O)N2CCCCCC2)cc1,105,112,7,8
O=C(CN(C1CCCCC1)S(=O)(=O)c1ccccc1)N1CCCCC1,102,104,-35,1
CC(C)(C)C(=O)OC[n+]1ccccc1,101,110,-30,1
CC1CCN(C(=O)COC(=O)c2ccc(NC(=O)CC3SC(N4CCCC4)=NC3=O)cc2)CC1 (stereo unspecified),/,/,0,-5
N#CC(C#N)=C1CCCN1C(=O)c1ccccc1,105,112,-16,-2
CCN(CCS(=O)(=O)c1ccc(Cl)cc1)C(=O)Nc1ccc(Cl)cc1,108,110,-4,-8
Cc1sc(Nc2ccccc2)nc1-c1ccc(Cl)cc1,102,103,2,/
CCC1CSC(Nc2ccc(C)cc2)=N1 (stereo unspecified),103,109,-24,-14
CCOc1ccc(OCC)c(NC(=O)CCS(=O)(=O)c2ccc(C)cc2)c1,102,98,-16,-5
OCCN(Cc1ccccc1)Cc1c(Cl)cccc1Cl,100,104,7,-19
COc1cccc(OC)c1Cn1nnc2c(=O)[nH]c(C(=O)Nc3ccccc3Cl)nc21,100,101,-20,3
O=C(NCCN1CCCC1)C1c2ccccc2Oc2ccccc21,99,101,-3,-4
CC(=O)N(/N=C1\Sc2ccccc2C1=O)c1ccccc1,102,104,-4,-7
c1ccc(Nc2cn[nH]n2)cc1,100,97,/,-12
Cc1ccc(C(=O)NC2CCCCCCC2)cc1S(=O)(=O)N1CCOCC1,111,111,4,-7
COC(CNC(=O)/C=C1\Sc2ccccc2NC1=O)OC,101,106,-22,-6
CCCn1c(SCc2csc(NC(C)=O)n2)n[nH]c1=O,105,112,0,-16
Cc1cc(-n2nc3ccccc3n2)c2oc(SCC(=O)NC(C)(C)C)nc2c1,99,103,-7,-81
COc1cc(CNc2ccccc2)ccc1OCC(N)=O,105,107,-3,-6

# Look-ups from the results shown.
# Entry for COc1ccc(-c2nn(-c3ccccc3)cc2C(=O)N2CCOCC2)cc1 under Polio RdRp inh intensity: 107
# Entry for CCc1ccc(N2C(=O)CN(CC(=O)OC)C2=S)cc1 under Polio RdRp inh intensity: 102
# Entry for Cc1cc(C(=O)CSc2nc(N)cc(=O)[nH]2)c(C)n1C under MbtI inh: 0
# Entry for CCN(C(=O)c1ccc2c(c1)CCO2)c1cccc2ccccc12 under Polio RdRp inh: 102

# Given as labelled records: entries from further up
> N#CC(C#N)=C1CCCN1C(=O)c1ccccc1
  Polio RdRp inh: 105
  Polio RdRp inh intensity: 112
  MenB inh: -16
  MbtI inh: -2

> CCN(CCS(=O)(=O)c1ccc(Cl)cc1)C(=O)Nc1ccc(Cl)cc1
  Polio RdRp inh: 108
  Polio RdRp inh intensity: 110
  MenB inh: -4
  MbtI inh: -8

# The results go on.
molecule,Polio RdRp inh,Polio RdRp inh intensity,MenB inh,MbtI inh
Cc1oc2ccc(O)cc2c1C(=O)O,102,102,9,-65
OC1C2(c3ccccc3)CN3CN(C2)CC1(c1ccccc1)C3 (stereo unspecified),101,99,26,0
NC(=O)c1ccccc1N=Cc1ccc2ccccc2c1,104,111,-14,/
Cc1ccccc1NC(=O)Cc1nc(COC(=O)c2nccnc2N)cs1,105,103,9,98
O=C(NCCCn1ccnc1)c1cn(-c2ccccc2)nc1-c1ccccc1,103,96,/,-5
O=C1CCSc2c1cccc2C(=O)Nc1ccccc1F,101,102,12,-7
O=C(O)CC1(CC(=O)NCc2ccc3c(c2)OCO3)CCCCC1,95,104,-19,/
O=C(CSc1nc(-c2ccccc2)cc(=O)[nH]1)c1ccc(Cl)s1,102,100,4,5
CCC(C(=O)NCc1cccnc1)c1ccccc1 (stereo unspecified),102,102,10,-2
CC1=CC(C)C2(COC(=O)Nc3ccccc3)COC(c3cccnc3)C1C2C (stereo unspecified),113,108,-30,/
CC(C)(C)C(=O)OCc1nc(-c2ccc(C(F)(F)F)cc2)cs1,90,86,-10,11
c1nc(N2CCCC2)c2ccsc2n1,104,108,1,0
O=C(CN1C(=O)S/C(=C/c2ccc(Cl)cc2)C1=O)NC1CCCCC1,100,100,/,4
OC(Cc1nc2ccccc2[nH]1)c1nc2ccccc2[nH]1 (stereo unspecified),101,97,/,0
CN(C(=S)NCc1ccco1)c1ccccc1,101,105,-30,2

# Single records, from the list above:
# Listed for O=C(CSc1nc(-c2ccccc2)cc(=O)[nH]1)c1ccc(Cl)s1 = Polio RdRp inh: 102; Polio RdRp inh intensity: 100; MenB inh: 4; MbtI inh: 5
# Listed for O=C(CN1C(=O)S/C(=C/c2ccc(Cl)cc2)C1=O)NC1CCCCC1 = Polio RdRp inh: 100; Polio RdRp inh intensity: 100; MenB inh: /; MbtI inh: 4

# New compounds follow.
molecule,Polio RdRp inh,Polio RdRp inh intensity,MenB inh,MbtI inh
CN(C(=O)COc1ccc2ccc(=O)oc2c1)C1CCCCC1,100,101,/,-52
Cc1c(OCC(=O)O)ccc2c(-c3ccccc3)cc(=O)oc12,104,98,10,/
CN(C)c1ccc(Nc2cccc3nonc23)cc1,99,100,-24,-8
COc1ccc(-c2cn3ccccc3n2)cc1,104,100,-13,116
CCCNC(=O)N1CCN(c2ncccn2)CC1,103,102,-8,-6
COCC(C)NC(=O)c1cccs1 (stereo unspecified),105,109,-22,/
O=S(=O)(O)CCS,97,100,1,-14
Cn1ccnc1Sc1ccc(S(=O)(=O)N2CCCC2)cn1,104,107,-20,2
CC1=NCCN1S(=O)(=O)c1c(C(C)C)cc(C(C)C)cc1C(C)C,103,106,-19,/
Fc1cccc(Cl)c1-n1cccc1,100,103,-14,-4
CC1CCCCC1NC(N)=O (stereo unspecified),101,108,2,-8
Cc1ccc2onc(CC(=O)NC3CCCCC3)c2c1,102,104,2,0
Cc1nc2cc(C(=O)N3CCN(C)CC3)ccc2n1-c1ccccc1,103,102,-33,10
